VDR inhibitor: vitamin D3 receptor (human) inhibition | VDR-SRC2-3 peptide fluorescence polarization, 2 h | P11473 | Potency, µM, for inactives: max response, negative = inhibition, most hits filed as inhibitors | 0.93% of 400,000 active; active = well fitted inhibition curve with a large enough effect; inconclusive = small, poorly fitted or top-dose-only effect, or another doubt; inactive = no such curve, though single readings can be large or run the other way; also: series mostly up to about 120 µM
Target sequence (P11473 whole entry, looked up): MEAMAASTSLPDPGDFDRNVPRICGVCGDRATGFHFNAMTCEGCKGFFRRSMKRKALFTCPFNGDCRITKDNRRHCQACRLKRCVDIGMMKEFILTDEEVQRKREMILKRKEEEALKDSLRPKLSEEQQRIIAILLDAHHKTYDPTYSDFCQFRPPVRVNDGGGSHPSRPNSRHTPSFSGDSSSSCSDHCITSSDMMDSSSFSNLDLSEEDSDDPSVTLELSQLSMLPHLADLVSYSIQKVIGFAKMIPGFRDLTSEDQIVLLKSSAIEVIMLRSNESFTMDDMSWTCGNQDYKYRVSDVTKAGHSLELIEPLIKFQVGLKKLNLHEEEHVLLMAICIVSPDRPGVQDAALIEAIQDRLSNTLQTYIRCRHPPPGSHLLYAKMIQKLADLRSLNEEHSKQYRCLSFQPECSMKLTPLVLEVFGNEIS
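Measured by FP: displacement of SRC2-3 coactivator peptide from VDR by library compounds, following a two-hour ambient incubation.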
* = called active by the depositor; ? = inconclusive; & = joins results of further samples. % is scaled to controls: 0 for no effect and ±100 for the full control effect; potency is read from the fitted curve at half-maximal effect.

Start of the listing, in advance:
compound	VDR inhibitor
COc1ccc(OC)c(/C=C/C(=O)OCC(=O)NC2CCCCCCC2)c1	3.5%
Cc1cc(NC(=O)CCC2CCCC2)no1	-11.1%

The listing, previewed entries included:
compound	VDR inhibitor
COc1ccc(OC)c(/C=C/C(=O)OCC(=O)NC2CCCCCCC2)c1	3.5%
Cc1cc(NC(=O)CCC2CCCC2)no1	-11.1%
CCCCCCN(CCCCCC)C(=O)Cc1c(-c2ccc(Cl)cc2)[nH]c2ccc(Cl)cc12	-28.1%&-3.2%
CC(NC(=O)c1ccccc1)C(=O)OCC(=O)c1ccc(Br)cc1 (stereo not given)	4.3%
Cc1ccc(OCC(O)CN2CCN(CCO)CC2)c(C)c1 (stereo not given)	-10.4%
C1CCC(OCCN2CCN(CCOC3CCCCC3)CC2)CC1	-10.4%
CCOC(=O)Nc1ccc2c3c(cccc13)-c1ccccc1-2	-1.0%
COC(=O)c1c(NC(=O)CC2SC(N)=NC2=O)sc2c1CCC(C)C2 (stereo not given)	-10.9%
O=C(O)c1ccc(NCc2nc3cc4ccccc4cc3[nH]2)cc1	-1.2%
O=C(O)COc1ccc(Cl)cc1CO	5.9%
CN(C)C1=NC[C@H](Cc2ccccc2)N1CCCC1CCCCC1	0.3%
CC1(C)Cc2c(sc3nnn(Cc4ccccc4)c(=O)c23)CO1	1.7%
O=C(CSCc1c(F)cccc1Cl)NCC1CCCO1 (stereo not given)	-4.0%
Cc1cccc(NNC(N)=S)c1C	?
FC(F)(F)c1ccccc1-c1nccc(NCc2cccs2)n1	?
COCc1cc(C)nc(SCc2ccc(Br)cc2)c1C#N	4.0%
COc1ccc2[nH]c(=O)c(CN(C(C)=O)c3ccc(C)cc3C)cc2c1	9.8%
CCN(CC)C(=O)Cc1ccccc1	12.8%
CC(C)(C)C(=O)Nc1cccc(-c2ncon2)c1	-5.7%
Cc1ccc(-n2nc(C)c(C(C)(O)C(F)(F)F)c2N)cc1 (stereo not given)	-0.3%
CCCCC(=O)Nc1ccc(N2CCN(C(=O)c3ccco3)CC2)cc1	11.7%
Cc1c(C(=O)OC2CCCCC2)[nH]c2c1C(=O)CC(c1ccccc1)C2 (stereo not given)	4.9%
CCOc1cc(/C=N\NC(=O)c2ccc(NC(=O)C(C)(C)C)cc2)ccc1OC(=O)c1cccc(C)c1	5.7%
Cc1ccc(C(=O)N2CCC(C(=O)NCc3ccco3)CC2)cc1	-10.1%
O=C(O)c1cccc(-n2cccc2/C=C/[N+](=O)[O-])c1	?

Three entries already listed, ordered by count of non-hydrogen atoms, largest number first.
compound	VDR inhibitor
CCOc1cc(/C=N\NC(=O)c2ccc(NC(=O)C(C)(C)C)cc2)ccc1OC(=O)c1cccc(C)c1	5.7%
O=C(O)c1ccc(NCc2nc3cc4ccccc4cc3[nH]2)cc1	-1.2%
O=C(CSCc1c(F)cccc1Cl)NCC1CCCO1 (stereo not given)	-4.0%

(continued)
compound	VDR inhibitor
CSc1ncc(Cl)c(C(=O)N(Cc2ccc(C)cc2)C2CCS(=O)(=O)C2)n1 (stereo not given)	-3.0%
Cc1ccc(NC(=O)COc2coc(CN3CCc4ccccc43)cc2=O)cc1Cl	1.8%
CCOC(=O)c1c(NC(=O)CN2C(=O)NC3(CCC(C)CC3)C2=O)sc(C(=O)N(C)C)c1C (stereo not given)	0.6%
Cn1c(SCc2nc(-c3ccc(Br)cc3)no2)nnc1-c1ccco1	6.2%
CSc1ccc(C(=O)C2CCCN(C(=O)Cc3nonc3C)C2)cc1 (stereo not given)	-5.5%
CCc1ccc(NC(=O)CCn2c(=O)oc3ccccc32)cc1	14.3%
CCc1ccc2oc(C(=O)Nc3cccnc3)c(C)c2c1	-8.7%
Oc1ccccc1C1=Nc2nc3ccccc3n2C(c2ccccc2)C1 (stereo not given)	-20.5%
COc1ccc(CC(=O)NCc2n[nH]c(=S)n2-c2ccccc2OC)cc1	-9.7%
O=C(CCc1ccccc1)Nc1ccc2c(c1)OCO2	-7.4%
N#C/C(=C\c1cccnc1)c1ccccc1[N+](=O)[O-]	-17.6%
COc1ccc(Cc2cc(NCc3ccccc3)c3ncn(C(C)C)c3c2)cc1	7.5%
Cc1cccc(CN(C(=S)Nc2c(C)cccc2C)c2cccnc2)c1	?
CC(=O)c1ccc(NC(=O)c2cc(S(=O)(=O)N3CCCCCC3)cn2C)cc1	14.5%
CC(=O)N=c1sc(C(C)(C)C)c(C)n1C	-1.6%
COc1ccc2oc(=N)c(C(=O)Nc3ccc(F)cc3)cc2c1	-15.3%
CS(=O)(=O)N1CCN(c2ccc(NC(=O)COc3ccccc3)cc2)CC1	7.8%
Nc1c(C(=O)c2ccccc2)oc2ccccc12	11.8%
CC(C(=O)N1CCCCCC1)N(c1ccc(Cl)cc1)S(C)(=O)=O (stereo not given)	10.1%
COc1ccccc1CN1CCC2(CC1)CCN(S(C)(=O)=O)CC2	-2.6%
Cc1ccc(NC(=O)CN2C(=O)NC(C)(CC(C)C)C2=O)c(Br)c1 (stereo not given)	7.0%
COc1cc(C2CC(=O)c3cnc(NC(=O)COc4ccccc4)nc3C2)cc(OC)c1OC (stereo not given)	21.2%
COc1cccc(CNC(=O)C2CCC(CNS(=O)(=O)c3ccc4c(c3)CCCC(=O)N4)CC2)c1 (stereo not given)	7.9%
Brc1ccccc1OCCCN1CCCC1	-4.7%
COc1c(N2CCN(C(=S)Nc3ccccc3F)C(C)C2)c(F)cc2c(=O)c(C(=O)O)cn(C3CC3)c12 (stereo not given)	-2.9%

5 records drawn at random from those above:
compound	VDR inhibitor
O=C(CCc1ccccc1)Nc1ccc2c(c1)OCO2	-7.4%
CC(C(=O)N1CCCCCC1)N(c1ccc(Cl)cc1)S(C)(=O)=O (stereo not given)	10.1%
CCc1ccc2oc(C(=O)Nc3cccnc3)c(C)c2c1	-8.7%
CC(=O)N=c1sc(C(C)(C)C)c(C)n1C	-1.6%
Nc1c(C(=O)c2ccccc2)oc2ccccc12	11.8%

Continued.
| Compound | VDR inhibitor |
| --- | --- |
| Nc1c(C(=O)c2ccc(F)cc2)sc(Nc2ccccc2F)c1S(=O)(=O)c1ccc(Br)cc1 | 1.1% |
| N#CCCN(Cc1cccnc1)C(=S)NCc1ccco1 | -8.3% |
| CNS(=O)(=O)c1cccc(C(=O)OCC(=O)c2cc3ccccc3o2)c1 | -20.9% |
| O=C(OCC(=O)c1c[nH]c2ccccc12)c1cccc([N+](=O)[O-])c1 | -17.4% |
| CN(Cc1ccccc1)S(=O)(=O)c1ccc(S(=O)(=O)N(Cc2ccc(F)cc2)C2CCCC2)cc1 | 0.3% |
| Cc1ccc(NC(=O)C/C(N)=N/O)cc1Cl | -2.0% |
| COc1ccc(-n2c(=O)c(CCc3ccccc3)nc3cncnc32)cc1 | -13.6% |
| NCC(=O)NCC(=O)NC[C@H]1O[C@@H](n2cnc3c(N)ncnc32)[C@H](O)[C@@H]1O | -10.5% |
| N#CC(C#N)=Cc1cc2ccccc2nc1N1CCOCC1 | ? |
| COc1ccc(N2CCN(c3oc(-c4ccc(COc5cccc(C)c5)o4)nc3C#N)CC2)cc1 | -3.3% |
| CC(=O)Nc1ccc(NC(=O)C(=O)NCC(c2ccco2)N2CCc3ccccc3C2)cc1 (stereo not given) | -16.9% |
| N#Cc1ccc(-c2csc(NC(=O)C3CC3)n2)cc1 | -11.2% |
| COc1cc2c(cc1OC)CN(C(=O)c1ccc([N+](=O)[O-])o1)CC2 | -6.5% |
| O=C(NCCN1CCOCC1)C1(C(F)(F)F)C/C(=C/CCO)CCCO1 (stereo not given) | -5.8% |
| O=C(Nc1ccccc1)c1ccc(OC(=O)c2cc3ccccc3o2)cc1 | -9.3% |
| O=C1c2ccccc2CN1Cc1ccccc1 | -1.6% |
| COC(=O)c1cc(OC)c(OC)cc1N1C(=O)CC(C)(C)CC1=O | -13.3% |
| Cc1ccc(S(=O)(=O)CCC(=O)NCc2ccccc2F)cc1 | 0.2% |
| CCOC(=O)c1ccc2nc(NC(=O)c3cccs3)sc2c1 | 5.5% |
| O=C(Oc1ccc(Br)cc1C(=S)N1CCCC1)c1ccccc1Cl | 11.3% |
| CCC(=O)NC(NCC1CCCO1)C(Cl)(Cl)Cl (stereo not given) | 10.6% |
| CCN1CCN(CCCNC(=O)c2ccc3c(c2)NC(=O)/C(=C\c2cccc(C)c2)S3)CC1 | -4.9% |
| COCCCNC(=O)Cc1ccc(-n2c(C)nc3cccnc32)cc1 | 15.0% |
| O=C(CSCc1cc(=O)c2cc(F)ccc2[nH]1)Nc1ccccc1Cl | 16.2% |
| O=C(NCc1ccco1)c1cnn2c1NC(c1ccc(Br)cc1)CC2C(F)(F)F (stereo not given) | ? |
| Cc1ccccc1Cn1c2ccccc2c2cnn(CC(=O)NCCc3ccccc3)c(=O)c21 | 10.3% |
| CCc1cc(=O)oc2cc(OC3CCCCC3=O)ccc12 (stereo not given) | 13.7% |
| Cc1ccc2c(c1)-c1c(ssc1=S)C(C)(C)N2C(=O)CSc1nncn1C | -25.2% |
| O=S(=O)(NC1CC2CCC1C2)c1ccc(Br)s1 (stereo not given) | -20.4% |
| COc1ccc(NC(=S)N/N=C/c2ccc(F)cc2)cc1OC | 6.4% |
| Cc1ccc(-n2ncc(C(=O)Nc3ccc4c(c3)OCO4)c2C2CCN(C(=O)OC(C)(C)C)CC2)c(C)c1 | -4.1% |
| Cn1c(=O)c2cc(S(=O)(=O)NC(C(=O)NCc3cccnc3)c3ccccc3)ccc2n(C)c1=O (stereo not given) | -2.9% |
| Cc1ccc(NC(=O)c2cnc(SCC(=O)N3CCCc4ccccc43)n(C)c2=O)cc1 | -4.7% |
| COc1ccc(-c2cc3ccc(OCC(C)=O)cc3oc2=O)cc1OC | -12.2% |
| COc1ccc(OC)c(N(CC(=O)NCCc2ccc(OC)c(OC)c2)S(=O)(=O)c2ccccc2)c1 | -11.4% |
| CN1CCN(CCC(=O)N/N=C/c2cc([N+](=O)[O-])ccc2OC(F)F)CC1 | -7.7% |
| CCN1CCN(C(=O)C2CC(c3ccc(F)cc3)=NO2)CC1 (stereo not given) | -10.0% |
| COc1ccc(OC)c(S(=O)(=O)N2CCN(C)CC2)c1 | 12.8% |
| CC(C)NC(=O)c1ccc2c3n(nc2c1)-c1ccc(Cl)cc1CO3 | 0.5% |
| CCN(CC)CCNC(=O)c1cc(S(=O)(=O)N2CCc3ccccc32)cn1C | -4.6% |
| Cc1ccc2c(c1)c1c(c(=O)n(-c3cccc(Cl)c3)c(=O)n1C)n2C | 1.1% |
| Cc1ccc(C)c(SCC(=O)Nc2nnc(-c3ccccc3)o2)c1 | -12.6% |
| O=C(Nc1ccc(Cl)cc1)c1cc(Br)ccc1OCC(=O)N1CCOCC1 | -11.4% |
| CCOC(=O)c1cccc(NS(=O)(=O)c2c(C)[nH]c(C)c2C(=O)N2CCCC2)c1 | -7.6% |
| CCOc1ccc(C(=O)OCC(=O)Nc2cc(C)on2)cc1OCC | -6.1% |
| COCCNc1ccc(S(=O)(=O)N2CCCC2)cc1[N+](=O)[O-] | -11.3% |
| Cc1cc(C)n(-c2ccnc3cc(Cl)ccc23)n1 | 2.8% |
| Cc1ccc(-c2csc(/C(C#N)=C/c3ccccc3Cl)n2)cc1 | -7.8% |
| O=C(COC(=O)C1=COCCO1)Nc1ccccc1OC(F)F | -24.2% |
| CCOC(=O)c1ccc(NC2=CC(c3ccc(OCC)cc3)N(c3ccc(C(=O)OCC)cc3)C2=O)cc1 (stereo not given) | 28.2µM* |
| CC(C)(C)[C@@H]1C=C(C(=O)N2CCN(Cc3ccccc3)CC2)O[C@H](OCCCCO)C1 | -12.9% |
| Cn1c(=O)c2cc(S(=O)(=O)NC(C(=O)NCc3ccccn3)c3ccccc3)ccc2n(C)c1=O (stereo not given) | -3.7% |
| N#Cc1c(-c2c(Cl)cccc2Cl)noc1/C=C/Nc1ccc(C(=O)O)cc1 | 10.3% |
| COc1ccc(C2C(C(C)=O)=C(C)Nc3ncnn32)cc1OC (stereo not given) | 18.1% |
| CCOC(=O)c1cc2sccc2n1CC(=O)OC | -8.3% |
| CN1CCN(C(=O)c2ccc(COc3ccc(Cl)cc3Cl)cc2)CC1 | 16.7% |
| COc1ccccc1N1CCN(S(=O)(=O)c2c(C(=O)N3CCOCC3)c(C)n(C)c2C)CC1 | ? |
| CN(CC(=O)Nc1cccc(F)c1)CC(=O)Nc1cccc([N+](=O)[O-])c1 | -1.0% |
| O=C(O)COc1ccccc1/C=N/NC(=O)c1cc2ccccc2cc1O | -4.3% |
| CC(C)CC(=O)N1CCN(S(=O)(=O)c2ccc(C3CCCCC3)cc2)CC1 | 6.1% |

Next section:
| Compound | VDR inhibitor |
| --- | --- |
| Cc1ccc(SCCC(=O)Nc2ccccc2Br)cc1 | -3.4% |
| Cc1cccc(CN2C(=O)c3ccccc3Sc3ccc(C(=O)NCCCN4CCOCC4)cc32)c1 | -1.2%&-2.2% |
| Cc1ccc2nc(SCc3cn4cccnc4n3)[nH]c2c1 | ? |
| Cn1c(=O)[nH]c(=O)c2c1nc(N1CCN(c3ccccc3)CC1)n2CCSc1ncccn1 | 0.3% |
| COc1ccccc1OCc1nc2ccccc2[nH]1 | 9.8% |
| O=C(c1cccs1)N1CCC(N2CCN(c3ccccc3)CC2)CC1 | -4.9% |
| O=C(Nc1ccc(CN2CCOCC2)cc1)c1ccc(F)cc1 | -5.9% |
| COc1cccc(Cn2c(=O)cnc3cnc(Oc4ccccc4)nc32)c1 | -12.3% |
| CC(=O)Nc1ccc(/C=N/NC(=O)c2cc3cc(C)ccc3nc2C)cc1 | 3.8% |
| C=Cc1ccc(Cn2c(C)c(CNCc3ccc(SC)cc3)c(C(=O)O)c2C)cc1 | 4.8% |
| CCc1ccc(NC(=O)Cn2c(=O)n(CC3CCCO3)c(=O)c3cc(OC)c(OC)cc32)cc1 (stereo not given) | 13.3% |
| O=C(NNC(=S)Nc1cccc2ccccc12)c1cccc(Br)c1 | -1.3% |
| O=C(Nc1ccc(O)cc1)c1ccc2c(c1)C(=O)N(Cc1ccco1)C2=O | -8.2% |
| COc1cc(CCCN2C(=S)NC[C@@H]2CC2CCCCC2)cc(OC)c1OC | 1.7% |

The list is partial; the hit share may differ from the screen's.
